# TRPML1 inh: human mucolipin-1 channel inhibition; activity change, negative = inhibition, % (concentration not given with the values); 390,000 compounds, 0.02% hits; TRPML1-inducible cells, Ca2+ dye fluorescence, FDSS; active compounds read low; inhibition of EC80 agonist-evoked calcium signal; AID 624415; Q9GZU1; in the data active means activity change below about -50%; inconclusive means about -30% to -50%; inactive means above about -30%;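 note: stimulus is agonist 54-4 at its EC80 concentration; % is set by controls: 0 for no effect and ±100 for the full control effect; the text of the record puts the active cut at -80%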
#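 Tet-induced TRPML1-DL cells loaded with Ca8 no-wash calcium dye were read kinetically on FDSS. Compound addition was followed by EC80 agonist 54-4 (4 uM final); inhibition was read over 110 s.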
# TRPML1 agonist: human mucolipin-1 channel agonism. Q9GZU1. TRPML1-expressing cells, Ca2+ dye fluorescence, FDSS; host cell line not named in the record; reference of the full effect not given here. activation, % (no concentration beside the values). 410,000 compounds, 0.12% hits. AID 624414; in the data active = activation above about 50%; inconclusive = about 30% to 50%; inactive = below about 30%; note: 0% is about no effect; the text of the record puts the active cut at 80%
#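 Calcium fluorescence on an FDSS kinetic reader gave the read-out. Tet-induced TRPML1-DL cells were plated overnight, dye-loaded (Ca8 with quencher, 45-90 min, room temperature, dark), then read 110 s after compound addition, and again 110 s after 4uM final 54-4 (EC80).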
# ClpP mod: qHTS Assay for Activators of ClpP | purified B. subtilis ClpP, FRET peptide cleavage, 20 min | ATP-dependent Clp protease proteolytic subunit (Bacillus subtilis (strain 168)), P80244 | 340,000 compounds, 1.9% hits | Potency, µM (titrated, usually from 57.5 µM), for the others: top-dose activity change, negative = active | AID 651965, 2013; active = well fitted falling curve with a large enough effect; inconclusive = small, poorly fitted or top-dose-only effect; inactive = no such curve, though single readings can be large or run the other way; note: potency is the fitted concentration of half-maximal effect; the source files actives as falling curves though it sought activators and does not explain the sign; nearly all actives have a fitted effect of over 65% in size; many hits overshoot -100%
# Target sequence (P80244 whole entry, looked up): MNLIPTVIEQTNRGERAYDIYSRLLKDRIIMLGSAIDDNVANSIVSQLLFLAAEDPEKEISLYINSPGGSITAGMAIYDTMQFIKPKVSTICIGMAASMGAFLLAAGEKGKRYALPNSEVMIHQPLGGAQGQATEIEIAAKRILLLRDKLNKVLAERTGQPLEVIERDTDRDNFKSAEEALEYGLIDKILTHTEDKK
#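 ClpP 10 microg/mL final, pH 8 Tris/KCl buffer with BSA, glycerol, Tween-20; compound pinned in; FRET-FV substrate; RT 20 min; Ex320/Em430; ΔFRET vs ADEP 5.8 microM, DMSO, no enzyme.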
# Sfp PPTase inh: blocks B. subtilis Sfp PPTase activity | Q9F4F7 | Biochemical Sfp PPTase activity, qHTS | AID 1490 | Potency, µM, for the others: max response, negative = inhibition, usual class: inhibitors | 310,000 compounds, 3.5% hits; active = well fitted inhibition curve with a large enough effect; inconclusive = small, poorly fitted or top-dose-only effect, or another doubt; inactive = no such curve, though single readings can be large or run the other way;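 note: the enzyme is Sfp with the accession as filed and its product quenches rhodamine fluorescence; potency is the fitted concentration of half-maximal effect; 0% = enzyme reaction without inhibitor and -100% = no enzyme wells; top concentration of the series not given in the record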
#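 Sfp 15 nM + cpd, 15 min RT; start w/ rhodamine-CoA 5 uM, BHQ-2-YbbR 12.5 uM (final); 50 mM Hepes pH 7.6, 10 mM MgCl2, 0.01% NP-40, 0.01% BSA; read 525/598 nm at 0 and 30 min.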
# Menin-MLL FL inh: inhibitors of human menin-MLL interaction, wild-type MLL peptide | Fluorescence polarization, fluorescein-MLL peptide displacement from menin | FP activity change, % at 61.4 µM | 290,000 tested, under 10 active | AID 1766; inconclusive = falling polarisation curve, or a change in total fluorescence; inactive = total fluorescence flat and polarisation flat or rising; no compound was filed as active; the % refers to the polarisation; negative = inhibition;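 note: % of control where 0% means no effect; inhibitors lower the polarisation; unlabelled MLL peptide was the positive control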
# TRPV1 PAM: human TRPV1 potentiation; 320,000 compounds, 0.02% hits; TRPV1-expressing cells, Fluo-8 calcium influx, capsaicin EC20 potentiation; host cell line not named in the record; control for the full effect not named in the record; potentiation, % at 8.33 µM; AID 540277; Q8NER1; active means potentiation above 80%; inconclusive means 30% to 80%; inactive means below 30%; note: 0% is about no effect
# Target sequence (Q8NER1 whole entry, looked up): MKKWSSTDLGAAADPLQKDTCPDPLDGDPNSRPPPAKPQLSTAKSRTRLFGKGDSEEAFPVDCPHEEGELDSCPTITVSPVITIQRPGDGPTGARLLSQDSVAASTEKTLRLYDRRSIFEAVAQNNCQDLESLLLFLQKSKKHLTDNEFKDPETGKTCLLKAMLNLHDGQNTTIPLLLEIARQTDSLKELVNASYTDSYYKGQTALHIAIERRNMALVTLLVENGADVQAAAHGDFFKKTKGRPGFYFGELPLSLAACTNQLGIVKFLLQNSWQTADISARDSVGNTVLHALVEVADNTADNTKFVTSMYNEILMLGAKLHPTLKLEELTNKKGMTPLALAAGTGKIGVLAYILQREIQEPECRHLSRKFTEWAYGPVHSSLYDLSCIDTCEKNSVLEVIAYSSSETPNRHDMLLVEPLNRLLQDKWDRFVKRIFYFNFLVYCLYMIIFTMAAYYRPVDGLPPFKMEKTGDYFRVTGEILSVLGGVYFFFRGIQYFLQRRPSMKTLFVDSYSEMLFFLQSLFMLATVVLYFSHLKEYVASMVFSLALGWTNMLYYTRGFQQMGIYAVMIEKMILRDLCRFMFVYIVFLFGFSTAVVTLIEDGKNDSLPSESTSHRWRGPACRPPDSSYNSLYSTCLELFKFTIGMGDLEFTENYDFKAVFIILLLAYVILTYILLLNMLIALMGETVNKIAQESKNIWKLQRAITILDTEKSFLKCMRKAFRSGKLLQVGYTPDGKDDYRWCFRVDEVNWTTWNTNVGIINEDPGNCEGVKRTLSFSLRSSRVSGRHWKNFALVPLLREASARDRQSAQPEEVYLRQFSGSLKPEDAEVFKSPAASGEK
#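 Fluo-8 calcium influx in TRPV1-expressing cells, kinetic read (ex 480/em 520 nm). Compound added and read 3 min for agonist activity, followed by capsaicin at EC20 final and 2 min further read for enhancement.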
# PINK1 expr mod: PINK1 expression modulation | PINK1 immunofluorescence, high-content cytometry, 24 h | Potency, µM (doses to about 76.6 µM), for inactives: at the highest dose activation (PINK1 increase), usual class: activators | 410,000 compounds, 0.2% hits | AID 624263; active = well fitted activation curve with a large enough effect; inconclusive = small, poorly fitted or top-dose-only effect; inactive = flat fitted curve, though single readings scatter; cell line not stated here;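 note: potency is the fitted concentration of half-maximal effect; % of control where 0% means no effect; nearly all actives have a fitted effect of over 65% in size; a mitochondrial uncoupler was the plate control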
#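 Readout is PINK1 immunofluorescence, quantified alongside mitochondrial, cell and nuclear markers by laser-scanning microplate cytometry. Cells from a stable line were exposed to compound titrations (5 concentrations) for 24 hours, with CCCP controls.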
# * hit, by the source's call; ? = inconclusive; / = no result given; & = joins results of further samples; [ ] = dose if it differs, or a comment. Compounds were not picked by outcome; 4.4% or so of the library scored in one or more.
SMILES,TRPML1 inh,TRPML1 agonist,ClpP mod,Sfp PPTase inh,Menin-MLL FL inh,TRPV1 PAM,PINK1 expr mod
C#CCOCCOCCOCCNc1nc(N2CCN(C(=O)Cn3cc(CCO)nn3)CC2)nc(N2CCN(C(=O)[C@H](C)n3cc(CCCN=C(N)N)nn3)CC2)n1,-5,0.4,-0.4%,/,/,/,0.0%
CCC1(C)Cc2ccccc2-c2nc(NN)[nH]c(=O)c21 (configuration not stated),21,3.1,3.6%,-6%,-1.2,4,-2.2%
CC1(C)CC(=O)N(Cc2ccccc2)C(=O)C1,14,0.2,/,8%,1.4,-6,2.1%
O=C(Cn1[nH]c(=O)c2ccccc2c1=O)Nc1ccc(-c2nnc3n2CCCCC3)cc1,7,-0.5,-12%,7%,0.3,1,-0.3%
CCOC(=O)c1ccc(NC(=O)Cn2c(=O)n(-c3ccc(C)cc3)c(=O)c3c2cnn3C)cc1,10,1.0,-0.7%,/,/,/,1.9%
O=C(O)/C(=C\c1cccc(F)c1)c1ccc(S(=O)(=O)N2CCCC2)s1,4,-0.1,-0.8%,/,/,4,-0.1%
C[C@H](CO)N1C[C@H](C)[C@@H](CN(C)C(=O)NC2CCCCC2)Oc2c(NC(=O)C3CCCCC3)cccc2C1=O,-4,-0.4,-0.8%,/,/,/,-0.4%
COc1ccc(NC(=O)c2cccnc2SC)cc1S(=O)(=O)N1CCCCC1,-11,0.1,0.6%,-6%,0.0,23,1.2%
CN(C)CCOc1cccc(Cl)c1,-5,-0.2,0.3%,10%,9.5,21,-1.8%
O=C(CN1CCCSc2ccccc21)N1CCN(S(=O)(=O)c2cccc(F)c2)CC1,-11,0.2,0.4%,/,/,-11,-1.2%
O=C(COC(=O)Cc1ccsc1)Nc1ccc(Cl)cc1F,1,-0.3,1.9%,/,/,/,4.6%
COc1ccc(-n2c(COc3cccc(C)c3)nnc2SCC(=O)NCc2ccco2)cc1,16,1.4,2.7%,-3%,-27,/,-2.4%
COc1ccc(COC(=O)Nc2cn(C)nc2C(F)(F)F)cc1,12,-0.3,0.2%,-2%,1.0,13,-0.8%
CS(=O)(=O)N1CCC(C(=O)N2CCc3ccccc3C2)CC1,-7,0.8,-1.5%,14%,4.8,-8,2.1%[38.3 µM]
CCOC(=O)c1ccc(NC(=O)c2ccccc2N(C)S(=O)(=O)c2ccccc2)cc1,0,1.2,-18%,4%,0.4,10,7.4%
CCNC(=O)c1c(NC(=O)Cc2coc3cc(C)ccc23)sc2c1CCCC2,-18,-0.7,-9.4%,/,/,/,4.3%
O=C1CN(C(=O)COC(=O)c2ccccc2Br)c2ccccc2N1,-7,-0.6,2.1%,/,/,5,0.6%
CC(=O)n1nc(-c2cccc(C)c2)nc1SCC(=O)Nc1ccccc1,-6,1.5,-2.1%,3%,-1.5,3,-1.4%
COc1ccccc1NC(=O)CCC(=O)O,-2,-0.7,0.3%,2%,3.4,7,-21%[38.3 µM]
CC(Oc1cccc(NC(=O)c2cccs2)c1)C(=O)c1ccccc1 (configuration not stated),-14,3.2,/,19%,4.9,-3,-0.7%
COC(=O)CC(NS(=O)(=O)c1cccs1)c1cccc2ccccc12 (configuration not stated),-4,-1.5,2.8%,4%,2.0,7,-1.1%
COc1ccc(/C=C2\CCCc3c2nc2ccccc2c3C(=O)OCC(=O)c2c(N)n(C)c(=O)n(C)c2=O)cc1,/,/,/,-7%,8.1,4,/
O=C(NCCC1=CCCCC1)C1CCC(CNS(=O)(=O)c2ccccc2)CC1 (configuration not stated),-18,-0.1,-1.1%,9%,1.2,-16,14%
C=C1C[C@H](O)[C@@H]2[C@H](OC(=O)[C@H]2C)[C@H]2[C@H](C)[C@@H](O)C[C@@H]12,10,-0.8,-0.6%,/,/,-41,0.2%
Cc1ccc(NC(=O)c2sccc2SCc2cccc(C(F)(F)F)c2)cc1,32,1.1,-9.5%,4%,4.6,-6,6.7%[38.3 µM]

# New compounds follow
SMILES,TRPML1 inh,TRPML1 agonist,ClpP mod,Sfp PPTase inh,Menin-MLL FL inh,TRPV1 PAM,PINK1 expr mod
NC(=O)CSc1nnc(Cc2ccc3c(c2)OCO3)o1,-9,-0.3,/,-20%,2.4,9,0.2%
CN(C(=O)CSc1nnc(-c2cccnc2)n1-c1ccccc1F)C1CCS(=O)(=O)C1 (configuration not stated),1,-0.6,/,17%,-11,13,2.8%
CCN1C(=O)c2cccc3c(S(=O)(=O)N(C)C)ccc1c23,-5,-0.9,3.7%,/,/,/,-0.7%
Cc1cccc(OCCCC(=O)Nc2ccc(S(N)(=O)=O)cc2)c1C,-20,1.1,1.0%,27%,-0.3,0,-0.5%
CCC(=O)N1c2ccccc2CC1C(=O)NCc1cccc(OC)c1OC (configuration not stated),-14,0.0,0.3%,/,/,/,0.5%
Clc1ccccc1-c1nnc(COc2ccccc2)o1,11,2.7,0.0%,/,/,/,0.0%
O=C(CCS(=O)(=O)c1cc(Br)cc2c1N(C(=O)C1CC1)CC2)N1CCN(c2ccccc2)CC1,4,0.9,-3.2%,/,/,/,0.0%
COc1ccc(N(CC(=O)N/N=C/c2ccc(OC)c(OC)c2)S(=O)(=O)c2ccccc2)cc1,29,3.9,-7.0%,5%,4.7,10,4.1%
CC1CC(=O)c2cnc(NCc3ccco3)nc2C1 (configuration not stated),-2,-0.3,-2.9%,14%,3.9,-2,0.3%
CCOC(=O)c1ccc(-c2c(-c3ccc4c(c3)OCO4)noc2C)cc1F,-4,0.2&0.9,-23%&-19%,-9%,-13,9,1.4%
O=C(CSc1ccc2nnc(CCNC(=O)c3ccccc3)n2n1)NC1CCCC1,4,0.2,-26%,-7%,/,-16,2.6%
CCOC(=O)C1=C(COC(=O)COc2ccccc2C#N)NC(=O)NC1C (configuration not stated),5,1.2,/,/,/,5,-0.3%
COc1cccc(-c2nc3ccccc3s2)c1,-15,1.5,28µM*,-4%,-0.3,7,?
CCOc1ccc(Nc2c(S(=O)(=O)c3ccc(C)cc3)cnc3ccc(F)cc23)cc1,-13,63*,-1.3%,/,/,/,1.0%
O=C(NCCc1c[nH]c2ccccc12)/C(=C/c1cccnc1)NC(=O)c1cccs1,34,0.0,-1.0%,6%,-4.3,-10,0.8%
COc1ccc(NC(=O)N2CCN(S(=O)(=O)c3ccc4c(ccn4C)c3)CC2)c(OC)c1,-3,0.8,-17%,/,/,/,-1.1%
COc1ccccc1CCC(=O)Nc1cc(S(=O)(=O)N2CCOCC2)ccc1N1CCCC1,8,0.3,/,/,/,2,-0.9%
Cc1cc(=O)oc2cc(NC(=O)c3cccc(F)c3)ccc12,-1,0.4,/,11%,-0.2,2,-0.4%
COCCn1c(SCc2ccccc2F)nc2c([nH]c3ccccc32)c1=O,-15,1.4,7.6%,/,/,/,0.1%
CCOC(=O)c1c(C)[nH]c(C)c1C(=O)CSc1nnc(-c2ccco2)n1Cc1ccccc1,-8,0.4,0.1%,14%,5.1,29,-4.3%
CCCCOC(=O)c1ccc(NC(=S)N2CCN(c3ncc4c(=O)c(C(=O)O)cn(CC)c4n3)CC2)cc1,-7,0.3,-5.7%,-2%,7.9,?,28µM*
Cc1nnc(SCC(=O)Nc2ccccc2)c2ccccc12,-3,-0.4,/,7%,2.1,?,1.0%
COc1ccc(CNC(=O)C2CCCN2S(=O)(=O)c2ccc(S(=O)(=O)N(C)C)cc2)cc1 (configuration not stated),-6,-0.9,1.5%,5%,1.6,0,-0.7%
Nc1n[nH]c2c1C1(CCCCC1)Cc1ccccc1-2,-11,1.0,-8.2%,-8%,9.1,5,1.1%
O=C(NCCCl)Nc1cccnc1Cl,15,-0.1,/,5%,-0.8,1,0.2%

# New compounds follow
SMILES,TRPML1 inh,TRPML1 agonist,ClpP mod,Sfp PPTase inh,Menin-MLL FL inh,TRPV1 PAM,PINK1 expr mod
O=C(NCc1ccccc1)C1=C[C@@H](c2ccccc2)C[C@@H](OCCCCO)O1,27,-0.4,2.6%,/,/,/,2.4%
COc1ccc(CCN(C)C(=O)C2CCN(Cc3ccccc3)CC2)cc1OC,15,0.1,-0.1%,-7%,1.9,1,-0.7%
Cc1cccc(NCN2C(=O)c3ccncc3C2=O)n1,-6,0.1,-24%,17%,2.8,-3,-0.1%[38.3 µM]
CS(=O)(=O)N1CCC(C(=O)Nc2ccc(F)cc2F)CC1,-13,-0.5,-0.3%,-3%,2.7,14,-1.0%
C=CCOc1ccc(C(=O)Nc2ccccc2C(=O)N2CCCC2)cc1,44,-0.3,?,1%,-1.4,14,-2.2%
O=C(c1cc2ccccc2oc1=O)N1CCOCC1,-1,0.5,/,16%,1.4,-6,-0.5%
COCC(C)n1c(=O)sc2ccccc2c1=O (configuration not stated),-21,-0.1,/,6%,-2.1,4,-0.5%
COC(=O)c1ccc(CN2CCC(n3nccc3NC(=O)C3CCCC3)CC2)cc1,11,1.5,0.7%,19%,/,6,-0.3%
O=C(NC(=S)N1CCN(c2ccc([N+](=O)[O-])cc2)CC1)c1ccccc1Cl,3,0.7,/,20%,0.2,-1,1.8%
CCOC(=O)Cn1c(S(=O)(=O)Cc2ccc(F)cc2)nc(-c2ccccc2)c1-c1ccccc1,5,2.4,-6.3%,9%,1.7,6,1.6%[38.3 µM]
COc1cc(NC(=O)CCC(=O)O)nc(OC)n1,-14,0.3,0.7%,9%,2.1,8,?
CCN(C(=O)COc1cc(=O)n(CC)c2ccccc12)c1cccc(Cl)c1,-7,0.2,-3.2%,-5%,7.4,?,32%[38.3 µM]
Cc1c(C)n(C(=O)CSc2ncn[nH]2)c2ccccc12,10,-0.8,5.1%,-12%,15,-17,5.1%
CCOC(=O)N1CCN(Cc2nc3cc(NC(=O)C(C)C)ccc3n2C(C)C)CC1,9,1.6,-17%,/,/,/,12%
O=C(NCc1n[nH]c(=S)n1-c1ccc(Br)cc1)c1ccc(S(=O)(=O)N2CCCCC2)cc1,-6,-0.5,/,-12%,-5.8,6,0.4%
Cc1ccc(S(=O)(=O)N2CCN(CC(=O)N/N=C\C(Cl)=C\c3ccccc3)CC2)cc1,74,0.2,-0.4%,-11%,-3.0,-2,2.8%
Cc1ccc(Cl)cc1Nc1nc2ccccc2c2nncn12,25,1.7,-27%,/,/,/,1.9%
COC(=O)c1cccc(NC(=O)COC(=O)CSc2nc(C)cc(C)n2)c1,-6,1.2,-2.2%,3%,1.0,12,0.6%[38.3 µM]
